TRPML1 agonist: human mucolipin-1 channel agonism | activation, % (test concentration not listed) | AID 624414 | Q9GZU1 | hit rate 0.12% among 410,000 | TRPML1-expressing cells, Ca2+ dye fluorescence, FDSS; host cell line not named in the record; reference of the full effect not given here; in the data active = activation above about 50%; inconclusive = about 30% to 50%; inactive = below about 30%; also: 0% is about no effect; the text of the record puts the active cut at 80%
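In this qHTS format, compounds were pin-transferred onto Ca8-dye-loaded TRPML1-DL cells induced with Tet overnight, and intracellular Ca2+ fluorescence was recorded kinetically for 110 s after a 10 s baseline. A subsequent 4uM final 54-4 (EC80) addition followed by a second 110 s read served as the antagonist phase.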
TRPML1 blocker: human mucolipin-1 channel inhibition; Q9GZU1; TRPML1-inducible cells, Ca2+ dye fluorescence, FDSS; hits give low values; inhibition of EC80 agonist-evoked calcium signal; hit rate 0.02% among 390,000; activity change, negative = inhibition, % (concentration not given with the values); in the data active means activity change below about -50%; inconclusive means about -30% to -50%; inactive means above about -30%;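 also: stimulus is agonist 54-4 at its EC80 concentration; % is scaled to controls: 0 for no effect and ±100 for the full control effect; compound concentration not given in the record; the text of the record puts the active cut at -80%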
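TRPML1-DL cells, Tet-induced overnight (~16 h, 37 °C) at 1,500 cells/well, were loaded with Ca8 no-wash dye plus quencher for 45-90 min at room temperature. Compounds were pinned during FDSS kinetic reading; agonist 54-4 at EC80 (4 uM final) then added.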
Starred values were filed as active, the others as inactive. A portion of the library. The share of hits here may be higher or lower than overall.

structure	TRPML1 agonist	TRPML1 blocker
CC(=O)OCC(NC(=O)C(CCCCNC(=O)OCc1ccccc1)NC(=O)OC(C)(C)C)C1OC(n2ccc(=O)[nH]c2=O)C(OC(C)=O)C1OC(C)=O (stereo not given)	1.4	14
CC(C)(C)n1ncc2c(=O)n(Cc3ccc(Cl)c(SC(F)(F)F)c3)cnc21	1.8	63
O=C1C[C@H](c2ccc(-c3ccccc3)cc2)N1S(=O)(=O)c1ccccc1[N+](=O)[O-]	0.8	-7
COc1ccc(SCC(Cc2ccccc2)N2CCN(C)CCC2=O)cc1 (stereo not given)	1.2	-7
CCCCN1CCC2C=CCC(C(=O)O)C2C1=O (stereo not given)	-0.1	1
CNC(=O)C1(C(F)(F)F)C/C(=C/CCO)CCCO1 (stereo not given)	0.3	-8
COC(=O)C1=C[C@@H](C(=O)OC)[C@@H]2C3=C(C(=O)[C@]2(C)NC(=O)c2ccccc2)[C@H](C)[C@@H]2C(=O)NC(=O)[C@@H]2[C@@H]3C1	0.2	2
Cc1cn(C2CC3OCC(NC(=O)C(NC(=O)OC(C)(C)C)C(C)OCc4ccccc4)C3O2)c(=O)[nH]c1=O (stereo not given)	0.9	6
CC(C)=CC(=O)Oc1ccc(C(=O)N(C)c2ccccc2I)cc1	0.8	1
COP1(=O)CC(O)C(O)C(COCc2ccccc2)O1 (stereo not given)	0.0	-17
CC(C)(C)n1ncc2c(=O)n(Cc3ccc(Cl)cc3F)cnc21	1.7	1
CC(C)c1ccc(Cn2cnc3c(cnn3C(C)(C)C)c2=O)cc1	2.0	9
COc1ccc(SCC(Cc2ccccc2)N2CCN(CC(C)C)CCC2=O)cc1 (stereo not given)	1.4	39
CC(C)(C)n1ncc2c(=O)n(Cc3ccc(F)cc3Cl)cnc21	8.0	-9
C=C1C=CS(=O)(=O)N(C(C)C(=O)OC)C1 (stereo not given)	0.0	-1
COc1ccc(C2C=C3CNS(=O)(=O)C3CC2OC(=O)c2ccc(Cl)cc2)cc1 (stereo not given)	2.4	12
COC(=O)C(NS(=O)(=O)CCl)C(C)C (stereo not given)	0.2	1
Cc1ccc(SCC(CC(C)C)N2CCN(C)CCC2=O)cc1 (stereo not given)	0.5	-21
CC(C)(C)n1ncc2c(=O)n(Cc3cccc(-c4ccccc4)c3)cnc21	3.8	39
C=C1CCN(C(CC(C)C)C(=O)NN2CCOCC2)S(=O)(=O)c2ccccc21 (stereo not given)	0.1	-7
CC(C)(C)OC(=O)NC(Cc1ccccc1)C(O)c1ccco1 (stereo not given)	0.6	-4
C=CCCN(C(Cc1ccccc1)C(=O)OC)S(=O)(=O)c1cc(Br)ccc1Br (stereo not given)	2.5	-3
CC(=O)OCC(NC(=O)C(CCCCNC(=O)OCc1ccccc1)NC(=O)OC(C)(C)C)C1OC(n2cc(C)c(=O)[nH]c2=O)C(OC(C)=O)C1OC(C)=O (stereo not given)	0.6	-18
O=C(O)[C@@H]1C[C@H](C(=O)O)N1	0.3	3
COc1ccc(-c2ccc(C3C4C=CCC(C)C4C(=O)N3Cc3ccccc3)c(F)c2)cc1OC (stereo not given)	1.8	70
CC(C)(C)n1ncc2c(=O)n(Cc3cccc(C#N)c3)cnc21	0.4	0

Some of these compounds in order of count of non-hydrogen atoms, highest first.
structure	TRPML1 agonist	TRPML1 blocker
CC(=O)OCC(NC(=O)C(CCCCNC(=O)OCc1ccccc1)NC(=O)OC(C)(C)C)C1OC(n2cc(C)c(=O)[nH]c2=O)C(OC(C)=O)C1OC(C)=O (stereo not given)	0.6	-18
COc1ccc(-c2ccc(C3C4C=CCC(C)C4C(=O)N3Cc3ccccc3)c(F)c2)cc1OC (stereo not given)	1.8	70
COc1ccc(SCC(Cc2ccccc2)N2CCN(CC(C)C)CCC2=O)cc1 (stereo not given)	1.4	39
COc1ccc(C2C=C3CNS(=O)(=O)C3CC2OC(=O)c2ccc(Cl)cc2)cc1 (stereo not given)	2.4	12
C=C1CCN(C(CC(C)C)C(=O)NN2CCOCC2)S(=O)(=O)c2ccccc21 (stereo not given)	0.1	-7
CC(C)(C)n1ncc2c(=O)n(Cc3cccc(-c4ccccc4)c3)cnc21	3.8	39
CC(C)c1ccc(Cn2cnc3c(cnn3C(C)(C)C)c2=O)cc1	2.0	9
CC(C)(C)n1ncc2c(=O)n(Cc3cccc(C#N)c3)cnc21	0.4	0
C=C1C=CS(=O)(=O)N(C(C)C(=O)OC)C1 (stereo not given)	0.0	-1
COC(=O)C(NS(=O)(=O)CCl)C(C)C (stereo not given)	0.2	1
O=C(O)[C@@H]1C[C@H](C(=O)O)N1	0.3	3
